KSHV LANA nucl: LANA-nucleosome interaction inhibition. z-score (test concentration not listed). FITC-LANA1-23 / chicken nucleosome fluorescence polarization; active compounds read low. AID 720717. hit rate 0.3% among 51,000;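 active means both repeat wells score below -2 in polarization z-score versus plate sample wells, excluding overly bright wells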;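 further: 100 nL library stock added to about 30 µL; numbers are from one replicate; some results filed as inactive read as strong as hits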
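Assay system: purified chicken nucleosomes with FITC-labelled LANA N-terminal peptide (1-23) / Probe or stimulus: 50 nM FITC-LANA1-23 probe / Compound dosing: pin-transferred compound, 100 nL / Times: compound with peptide–nucleosome mix 10–45 min at room temperature / Technique: fluorescence polarization, 480 nm excitation, 535 nm parallel and perpendicular emission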
Ab BasE inh: blocks the Acinetobacter baumannii siderophore enzyme BasE; hit rate 0.1% among 84,000; purified BasE, fluorescence polarization binding displacement; inhibition, % (no concentration beside the values);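 active means both replicates above 25% with normal brightness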;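 further: 0% = negative plate control signal and 100% = positive plate control signal; stock transfer was 100 nL into about 30 µL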
* hit, by the source's call; · = no result given; & = joins results of further samples. The list is partial; count on the stated rates, not on these rows.

SMILES	KSHV LANA nucl	Ab BasE inh
Cn1cc(C(=O)CSc2nnc(-c3ccoc3)c(-c3ccoc3)n2)c2ccccc21	0.38	5.0
O=S(=O)(Cc1ccccc1)c1ccccc1	·	0.9
CCOC(=O)COc1cc2oc(C)c(-c3nc4ccccc4s3)c(=O)c2cc1CC	·	1.4
CN(C(=O)Nc1ccccc1)C1CCCc2ccccc21 (stereo not given)	·	-0.8
Cc1nnc(SC(C)C(=O)NCc2ccccc2)[nH]c1=O (stereo not given)	0.34	1.4
CCOc1ccc(CNC(=O)CCn2nc(C)cc2C)cc1OC	-0.76	1.5
CCNc1nc(Cl)nc(NC2CCCCC2)n1	-0.14	0.1
CC(=O)Nc1ccc2c(c1)sc(=NC(=O)c1cccs1)n2C	2.5	-0.6
CCN(CC)C(N)=S	·	1.4
CCn1nnc2cc(C(=O)NCc3ccccc3CN3CCCC3)ccc21	·	-1.1
O=C(Nc1ccc2c(c1)OCCO2)C1CCCN(S(=O)(=O)Cc2ccccc2)C1 (stereo not given)	1.7	-4.7
O=c1oc(-c2cccc(C(F)(F)F)c2)nn1-c1ccc(C(F)(F)F)cn1	·	0.9
C=CCn1c(CNC(=O)c2cccs2)nnc1SCC(=O)Nc1nc2ccccc2s1	0.15	-1.4
CCOC(=O)c1cccc(NC(=O)CCn2ccc(C)n2)c1	-1	1.3
O=C(OCc1nc2ccccc2s1)C1CCCCC1	·	1.2
O=C(NCc1ccco1)C(C(=O)c1ccccc1)n1ccccc1=O (stereo not given)	0.022	3.1
Cc1nnc2n1N=C(c1ccc(OC(F)F)cc1)C(C)S2 (stereo not given)	·	3.4
CCSc1nnc(-c2ccc(OC)cc2)n1C1CCCCC1C (stereo not given)	·	1.4
O=C(c1cnn(C(=O)c2ccccc2)c1)c1ccccc1O	·	0.4
Cc1sc2ncnc(OCC(=O)N(C)Cc3ccco3)c2c1C	·	0.1
Cc1ccc(C(=O)C2C(=O)c3ccccc3C2=O)cc1	·	4.4
CC(NCc1ccc(F)cc1)C(=O)NC1CCCCC1 (stereo not given)	-0.46	-1.0
Cc1cc(C)cc(NC(=O)c2cc(-c3ccco3)nc3ccccc23)c1	0.93	-5.6
Cc1ccc(Oc2ccccc2)c(NC=O)c1	·	2.7
O=C(c1ccc(S(=O)(=O)N2CCCCC2)cc1)N1CCN(Cc2nc3ccccc3s2)CC1	·	2.4
CC1(C)OC(=O)NC1=O	0.62&-0.1&-0.63	-0.9&-3.0
O=c1[nH]cnc2c1ncn2COCCO	0.067	-1.5
CCOC(=O)c1c(C)[nH]c(/C(C)=N\O)c1C	·	0.2
Cc1nc2cc(C(=O)O)ccc2n1C1CCCCC1	-0.57	2.2
COc1ccc(Nc2c(-c3ccc(N4CCOCC4)cc3)nc3cnccn23)cc1	0.055	0.6

Shown as comma-separated lines: entries from further up
structure,KSHV LANA nucl,Ab BasE inh
COc1ccc(Nc2c(-c3ccc(N4CCOCC4)cc3)nc3cnccn23)cc1,0.055,0.6
Cc1cc(C)cc(NC(=O)c2cc(-c3ccco3)nc3ccccc23)c1,0.93,-5.6

New compounds follow
SMILES	KSHV LANA nucl	Ab BasE inh
CC(C)C(=O)/C=C1/Sc2ccccc2N1C	·	2.6
CC(O)Cc1n[nH]c(=S)n1-c1ccccc1 (stereo not given)	-0.93	2.8
COC(=O)c1ccc2c(=O)[nH]c(COC(=O)Cc3n[nH]c(=O)c4ccccc34)nc2c1	·	-1.1
CC(Sc1nnc(-c2ccccc2Br)o1)C(=O)Nc1cccc(Cl)c1 (stereo not given)	0.46	-1.5
CCN(CC(=O)NC1CCS(=O)(=O)C1)C(=O)c1ccccc1Sc1ccccc1C#N (stereo not given)	·	-1.3
Cc1ccc(S(=O)(=O)NCc2ccc(/C=C(/C#N)C(=O)NC3CCCCC3)o2)cc1	-0.052	-0.3
O=C(Nc1ccccc1)NC1(C(=O)NCc2ccc3c(c2)OCO3)CCCCC1	-0.92	0.3
Cc1ccc(C)c(N2CCN(C(=O)CCCn3c(=O)c4cccn4c4cccnc43)CC2)c1	1.6	-3.3
Cc1nc2ccccn2c1-c1ccnc(=S)[nH]1	·	3.5
O=C1/C(=C\c2ccco2)N=C(SCc2nnc(-c3ccccc3)o2)N1c1ccc(OC(F)F)cc1	·	-3.2
COC(=O)/C(C#N)=C/c1cc(C(=O)OC)n(-c2ccc(Cl)cc2)c1	-0.32	0.3
CC(C)C1NC(=O)NC1=O (stereo not given)	·	-0.4
CC(C)C(C(=O)N1CCN(c2ccc(C(F)(F)F)cn2)CC1)c1ccc(Cl)cc1 (stereo not given)	·	2.2
CCCCCCC[N+](CC)(CC)CCCCc1ccc(Cl)cc1	-0.37	-1.6
COC(=O)CCS(=O)(=O)c1ccc(Cl)cc1	-0.52	1.4
O=C(O)CCNC(=O)Nc1cccc2ccccc12	0.81	1.0
CC(C)(C)c1ccc(OCCCC(=O)OCc2ccco2)cc1	·	0.8
O=c1[nH]cc(N=Cc2cccnc2)c(=O)[nH]1	-0.099&0.37	2.8&2.2
CNc1snc(C)c1C#N	·	1.2
OC(CN1CCOCC1)c1ccccc1 (stereo not given)	·	2.6
Cc1cc2nc(N(C)Cc3cccnc3)c3ccccc3n2n1	·	-0.1
CCOc1cc2c(cc1OCC)C1C(C(=O)NCCOC)c3ccccc3C(=O)N1CC2 (stereo not given)	0.37	2.2
N#Cc1ccccc1COC(=O)c1ccc2c(=O)n3c(nc2c1)CCCCC3	·	0.7
CSc1nc(C)cc(C)c1C(N)=O	-2.2	0.0
O=C1CC(c2ccccc2)Cc2[nH]ncc21 (stereo not given)	0.32	-2.6
CC(C)(C)c1cnnn1-c1ccc(NC(=O)c2ccc3c(c2)OCO3)cc1	-0.31	-2.9
Cc1c(C(=O)O)sc(=S)n1-c1ccccc1	-0.32	3.2
COc1cccc(N/C=C(\C#N)C(=O)N2CCOCC2)c1	0.66	-0.2
COC(=O)CCCCC1SCC2NC(=O)NC21 (stereo not given)	0.8	-0.4
O=S(=O)(c1cccc(C(F)(F)F)c1)N1CCCC1c1cccnc1 (stereo not given)	0.091	·
Cc1cnn(C(=S)NCCc2ccccc2)c1	-1.4	2.0
O=C(c1cncn1-c1ccccc1)N1CCCC(c2nc3ccccc3s2)C1 (stereo not given)	·	-0.3
COc1ccc2nc(C)cc(SCC(=O)O)c2c1	-0.86	1.1
CCOc1ncccc1C(=O)OCc1ccc(O)c2ncccc12	·	2.3
CCc1nnc(N2C(=O)c3ccccc3C2(O)c2ccccc2)s1 (stereo not given)	0.036	-1.8
CCc1ccc(C2C(C(=O)OC)=C(C)NC(C)=C2C(=O)OC)cc1	-0.75	9.3
N#C/C(=C\c1ccc(-c2ccccc2)o1)C(=O)Nc1ccccc1	-0.41	1.6
O=C(NC1CCN(Cc2ccccc2)CC1)c1ccsc1	-1.3	·
CC(C)C(=O)N(Cc1ccccc1)Cc1nc2ccccc2c(=O)[nH]1	0.26	0.7
CCCc1ccc(OCc2ccc(C(=O)n3cc(Cl)cn3)o2)cc1	0.42	-2.0
CCOC(=O)c1c(-c2ccc(Cl)cc2)nn2c1NCN(C1CCCCC1)C2	-0.27	-0.3
CCCCn1c(SC(F)F)nc2ccccc2c1=O	·	1.0
CCc1cc(C(=O)N(CC)Cc2ccncc2)cs1	-0.24	1.3
COC(=O)c1ccc(-c2nnc(-c3ccc(N(C)C)cc3)o2)cc1	·	7.2
CCc1c(C)sc(NC(=O)CC#N)c1C#N	1.5	-4.2
NC(=O)CCn1c2ccccc2c2ccccc21	0.9	-1.8
COc1cccc(C(=O)Nc2ncc3c(n2)CC(C)(C)CC3=O)c1	1.3	-1.0
CN1CN=C2SC3(COC(c4ccc(N(C)C)cc4)OC3)C(=O)N2C1 (stereo not given)	·	0.5
COc1ccc2nc3c(cc2c1)c(=O)n(C)c(=O)n3C	·	2.1
CCc1cc(SCC(=O)C(C#N)c2nc(C)cs2)n2c(nc3ccccc32)c1C#N (stereo not given)	·	-0.8

16 entries out of the list, arranged by molar mass, low to high.
SMILES	KSHV LANA nucl	Ab BasE inh
CCc1c(C)sc(NC(=O)CC#N)c1C#N	1.5	-4.2
NC(=O)CCn1c2ccccc2c2ccccc21	0.9	-1.8
COc1ccc2nc3c(cc2c1)c(=O)n(C)c(=O)n3C	·	2.1
CCc1cc(C(=O)N(CC)Cc2ccncc2)cs1	-0.24	1.3
O=C(NC1CCN(Cc2ccccc2)CC1)c1ccsc1	-1.3	·
N#C/C(=C\c1ccc(-c2ccccc2)o1)C(=O)Nc1ccccc1	-0.41	1.6
COC(=O)c1ccc(-c2nnc(-c3ccc(N(C)C)cc3)o2)cc1	·	7.2
CCOc1ncccc1C(=O)OCc1ccc(O)c2ncccc12	·	2.3
CCc1ccc(C2C(C(=O)OC)=C(C)NC(C)=C2C(=O)OC)cc1	-0.75	9.3
CC(C)C(=O)N(Cc1ccccc1)Cc1nc2ccccc2c(=O)[nH]1	0.26	0.7
CCc1nnc(N2C(=O)c3ccccc3C2(O)c2ccccc2)s1 (stereo not given)	0.036	-1.8
CCCc1ccc(OCc2ccc(C(=O)n3cc(Cl)cn3)o2)cc1	0.42	-2.0
CN1CN=C2SC3(COC(c4ccc(N(C)C)cc4)OC3)C(=O)N2C1 (stereo not given)	·	0.5
O=C(c1cncn1-c1ccccc1)N1CCCC(c2nc3ccccc3s2)C1 (stereo not given)	·	-0.3
CCOC(=O)c1c(-c2ccc(Cl)cc2)nn2c1NCN(C1CCCCC1)C2	-0.27	-0.3
CCc1cc(SCC(=O)C(C#N)c2nc(C)cs2)n2c(nc3ccccc32)c1C#N (stereo not given)	·	-0.8

Other results:
SMILES	KSHV LANA nucl	Ab BasE inh
Cc1ccc(-c2nonc2NC(=O)c2ccccc2)cc1	0.98	-0.2
COC(=O)c1cc(Cl)sc1NC(C)=O	0.59	·
O=C(O)CCn1cccc1	0.75	0.9
COc1ccc(S(=O)(=O)N2CCCCCC2)cc1C(=O)OCC(=O)N1CC(C)OC(C)C1 (stereo not given)	·	1.1
CSC(=NC(C)(C)C)Nc1ccccc1Cl	·	2.4
OCc1cc(Cl)ncc1Cl	-0.31	·
Cc1ccc(C)c(S(=O)(=O)N2CCN(C(=O)CCC(=O)Nc3ccc(OC(F)(F)F)cc3)CC2)c1	·	14
O=C(Cc1ccc(Cl)cc1)NCCS(=O)(=O)N1CCN(c2ccccc2)CC1	0.85	-0.4
COc1cc(C(=O)Nc2nnc(CC(=O)N3CCOCC3)s2)cc(OC)c1OC	-0.55	-2.0
O=C(Nc1ccc(N2CCOCC2)cc1)C1c2ccccc2Oc2ccccc21	·	0.9
O=C(O)CSc1sc(=S)sc1SCC(=O)O	0.024	2.5
Cc1ccc(Cn2cccc(C(=O)N(C)c3ccccc3)c2=O)cc1	-0.008	-1.2
Cc1cccc2sc(NS(=O)(=O)c3ccc(C(=O)O)cc3)nc12	0.03	0.5
Cc1ccc(CC(=O)N2CCN(C(=O)C3CCCO3)CC2)cc1 (stereo not given)	-1.2	2.6
O=C(CC(=O)Nc1ccc(F)cc1F)Nc1ccc(F)cc1F	-0.89	·
O=C(Nc1ccc(N2CCOCC2)cc1)[C@H](Cc1ccccc1)NS(=O)(=O)c1ccc2c(c1)OCCO2	·	-0.4
Clc1ccc(C2N=C(c3cnccn3)NN2)cc1 (stereo not given)	-3*	-0.9
c1ccc(C2Oc3ccccc3C3CC(c4cccnc4)=NN32)cc1 (stereo not given)	-0.63	1.9
Cc1ccc(CN2C(=O)c3ccccc3NC2c2ccccn2)cc1 (stereo not given)	·	1.4
N#CCOC(=O)C1COc2ccccc2O1 (stereo not given)	·	0.4
CC(C)c1nc(=S)[nH][nH]1	·	0.3
COC(=O)c1ccccc1S(=O)(=O)NC(=O)Nc1nc(C)c2c(n1)CCSC2	-1.2	2.5
CS(=O)(=O)c1ccc(Cl)c(NC(=O)C2CC(=O)N(Cc3ccccc3)C2)c1 (stereo not given)	·	-5.1
CC(=O)NS(=O)(=O)c1ccc(NC(=O)CN2C(=O)C3CC=CCC3C2=O)cc1 (stereo not given)	·	0.0
CNC(=O)[C@H](Cc1c[nH]c2ccccc12)NC(=O)[C@@H](CC(=O)NO)CC(C)C	-0.56	-2.2
O=C(O)c1ccc(/C=N/n2cnnc2)cc1	2.1	-4.1
Cc1nn(C)c2ncc(C(N)=O)c(Oc3cccnc3)c12	·	0.4
Cc1ccc(-n2c(C3CC3)n[nH]c2=S)c(C)c1	-1	-0.6
Cc1cc(Br)c2c(c1)C(O)(C1C(=O)Nc3ccccc31)C(=O)N2C (stereo not given)	-0.84	1.0
O=C(NCC1CCN(Cc2ccccc2F)CC1)Nc1ccccc1F	0.67	1.1
CCn1c(=S)[nH]c2ccccc2c1=O	·	-2.0
CCOc1ccc(S(=O)(=O)N(CC(=O)N2CCCCC2)c2ccccc2)cc1	-0.016	1.9
Cc1ccnc2nc(C(=O)NCCN3C(=O)S/C(=C\c4ccc5c(c4)OCO5)C3=O)nn12	·	0.9
Cc1ccc(-c2nnc(Sc3nc4ccccc4o3)c3ccccc23)cc1	·	1.2
O=C(CCS(=O)(=O)c1ccc(Cl)cc1)NC1CCCC1	·	-3.6
CCn1c(O)c(N=NC(=O)Nc2ccc(Cl)c(Cl)c2)c2ccccc21	·	0.7
CN(C)[C@@H]1C(=O)C(C(=O)NCN2CCCC2)=C(O)[C@@]2(O)C(=O)C3=C(O)c4c(O)cccc4[C@@](C)(O)[C@H]3C[C@@H]12	0.62	·
CC(Sc1nnc(-c2c[nH]c3ccccc23)n1C)c1ccccc1 (stereo not given)	-1.3	0.1
CCNS(=O)(=O)c1ccc(Cl)cc1I	·	2.5
Nc1nc(N)nc(SCC(=O)N2N=C(c3ccc4ccccc4c3)CC2c2ccccc2)n1 (stereo not given)	·	-4.3
COc1ccc(-c2nc(N)n(C(=O)c3ccco3)n2)cc1	0.12	0.4
CC(OC(=O)C1CC2CCCC(C1)C2=O)c1nnc(-c2ccccc2)o1 (stereo not given)	·	0.8
C=CCNC(=O)C1C2C=CC(O2)C1C(=O)O (stereo not given)	0.52	2.2

Bioassay records: PubChem, ICCB-Longwood Screening Facility, Harvard Medical School
